Screens: PubChem, National Center for Advancing Translational Sciences (NCATS)
TRPV1 potentiator = HTS Assay for Compounds that Act as Potentiators of the Vanilloid Receptor 1; Transient receptor potential cation channel subfamily V member 1 (Homo sapiens), Q8NER1; TRPV1-expressing cells, Fluo-8 calcium influx, capsaicin EC20 potentiation; host cell line not named in the record; control for the full effect not named in the record; potentiation, % at 8.33 µM; 320,000 compounds, 0.02% hits; AID 540277, 2011; active means potentiation above 80%; inconclusive means 30% to 80%; inactive means below 30%; also: 0% is about no effect
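Cells expressing TRPV1 were dye-loaded with Fluo-8 and read kinetically: 10 s baseline, 3 min after compound (agonist portion), then 2 min after EC20 capsaicin (allosteric enhancer portion). Calcium-bound dye fluorescence at 480/520 nm.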
ClpP mod = qHTS Assay for Activators of ClpP. ATP-dependent Clp protease proteolytic subunit (Bacillus subtilis (strain 168)), P80244. purified B. subtilis ClpP, FRET peptide cleavage, 20 min. Potency, µM (doses to about 57.5 µM), for the others: at the highest dose activity change, negative = active. 340,000 compounds, 1.9% hits; active = well fitted falling curve with a large enough effect; inconclusive = small, poorly fitted or top-dose-only effect; inactive = no such curve, though single readings can be large or run the other way; also: potency is read from the fitted curve at half-maximal effect; the source files actives as falling curves though it sought activators and does not explain the sign; nearly all actives have a fitted effect of over 65% in size; many hits overshoot -100%
Target sequence (P80244 whole entry, looked up): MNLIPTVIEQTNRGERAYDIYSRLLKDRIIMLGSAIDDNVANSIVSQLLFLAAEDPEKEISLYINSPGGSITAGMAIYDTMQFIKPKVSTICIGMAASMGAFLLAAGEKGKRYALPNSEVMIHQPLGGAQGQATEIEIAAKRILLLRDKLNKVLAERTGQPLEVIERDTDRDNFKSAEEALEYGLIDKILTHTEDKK
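FRET quenching reversal measured ClpP activation: 10 microg/mL B. subtilis ClpP at pH 8 with the FRET-FV decapeptide, read at 430 nm after 320 nm excitation. The 20-min minus 0-min signal was scaled between DMSO/no-enzyme wells and ADEP (5.8 microM final).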
TRPML1 blocker = qHTS for Inhibitors of the Human Mucolipin Transient Receptor Potential 1 (TRPML1); 390,000 compounds, 0.02% hits; TRPML1-inducible cells, Ca2+ dye fluorescence, FDSS; active compounds read low; inhibition of EC80 agonist-evoked calcium signal; Mucolipin-1 (Homo sapiens), Q9GZU1; activity change, negative = inhibition, % (test concentration not listed); in the data active means activity change below about -50%; inconclusive means about -30% to -50%; inactive means above about -30%;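 also: stimulus is agonist 54-4 at its EC80 concentration; % is scaled to controls: 0 for no effect and ±100 for the full control effect; compound concentration not given in the record; the text of the record puts the active cut at -80%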
Target sequence (Q9GZU1 whole entry, looked up): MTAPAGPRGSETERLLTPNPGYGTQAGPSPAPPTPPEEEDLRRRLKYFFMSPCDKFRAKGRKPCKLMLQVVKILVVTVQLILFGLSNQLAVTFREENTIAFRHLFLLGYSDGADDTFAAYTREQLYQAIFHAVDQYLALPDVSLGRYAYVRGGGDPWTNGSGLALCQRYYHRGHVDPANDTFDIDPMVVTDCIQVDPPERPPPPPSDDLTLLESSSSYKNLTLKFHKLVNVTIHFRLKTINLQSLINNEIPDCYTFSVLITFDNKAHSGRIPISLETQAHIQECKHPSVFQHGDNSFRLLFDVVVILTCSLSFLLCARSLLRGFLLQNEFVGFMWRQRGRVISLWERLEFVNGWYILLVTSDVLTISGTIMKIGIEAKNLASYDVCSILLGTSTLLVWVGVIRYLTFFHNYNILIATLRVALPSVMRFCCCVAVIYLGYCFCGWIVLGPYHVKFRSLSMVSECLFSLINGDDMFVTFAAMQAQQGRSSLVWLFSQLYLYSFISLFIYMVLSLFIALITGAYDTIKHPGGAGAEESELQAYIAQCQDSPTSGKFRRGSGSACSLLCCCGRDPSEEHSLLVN
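Calcium fluorescence in TRPML1-DL cells induced overnight with Tet: a 110 s read after compound pin addition, then a 110 s antagonist read after challenge with 54-4 at 4 uM final (EC80).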
TRPML1 agonist = qHTS for Agonists of the Human Mucolipin Transient Receptor Potential 1 (TRPML1); Mucolipin-1 (Homo sapiens), Q9GZU1; TRPML1-expressing cells, Ca2+ dye fluorescence, FDSS; host cell line not named in the record; reference of the full effect not given here; activation, % (concentration not given with the values); 410,000 compounds, 0.12% hits; AID 624414, 2012; in the data active = activation above about 50%; inconclusive = about 30% to 50%; inactive = below about 30%; also: 0% is about no effect; the text of the record puts the active cut at 80%
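In this qHTS format, compounds were pin-transferred onto Ca8-dye-loaded TRPML1-DL cells induced with Tet overnight, and intracellular Ca2+ fluorescence was recorded kinetically for 110 s after a 10 s baseline. A subsequent 4uM final 54-4 (EC80) addition followed by a second 110 s read served as the antagonist phase.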
PINK1 modulator = A Quantitative High throughput Screen to Identify Chemical Modulators of PINK1 Expression | PINK1 immunofluorescence, high-content cytometry, 24 h | Potency, µM (doses to about 76.6 µM), without a hit: at the highest dose activation (PINK1 increase), most hits filed as activators | 410,000 compounds, 0.2% hits | AID 624263, 2012; active = well fitted activation curve with a large enough effect; inconclusive = small, poorly fitted or top-dose-only effect; inactive = flat fitted curve, though single readings scatter; cell line not stated here;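 also: potency is read from the fitted curve at half-maximal effect; % of control where 0% means no effect; nearly all actives have a fitted effect of over 65% in size; a mitochondrial uncoupler was the plate control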
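PINK1 protein, normally rapidly degraded, was detected by immunofluorescence after 24 hour compound treatment of a stable cell line. Titration data (5 concentrations) came from laser-scanning cytometry, with CCCP-treated wells as controls.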
Menin MLL FP FL = qHTS Assay for Inhibitors Targeting the Menin-MLL Interaction in MLL Related Leukemias: Competition With Fluorescein Labeled MLL-derived Peptide; AID 1766, 2009; FP activity change, % at 61.4 µM; 290,000 tested, under 10 active; Fluorescence polarization, fluorescein-MLL peptide displacement from menin; inconclusive = falling polarisation curve, or a change in total fluorescence; inactive = total fluorescence flat and polarisation flat or rising; no compound was filed as active; the % refers to the polarisation; negative = inhibition;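 also: % of control where 0% means no effect; inhibitors lower the polarisation; unlabelled MLL peptide was the positive control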
Sfp inh = qHTS Assay for Inhibitors of Bacillus subtilis Sfp phosphopantetheinyl transferase (PPTase). Potency, µM, for the others: max response, negative = inhibition, most hits filed as inhibitors. Biochemical Sfp PPTase activity, qHTS. 310,000 compounds, 3.5% hits; active = well fitted inhibition curve with a large enough effect; inconclusive = small, poorly fitted or top-dose-only effect, or another doubt; inactive = no such curve, though single readings can be large or run the other way;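 also: the enzyme is Sfp with the accession as filed and its product quenches rhodamine fluorescence; potency is read from the fitted curve at half-maximal effect; 0% = enzyme reaction without inhibitor and -100% = no enzyme wells; top concentration of the series not given in the record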
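Compounds were incubated with enzyme (final 15 nM) for 15 min at room temperature before substrate addition started the reaction. Fluorescence at 525 nm excitation, 598 nm emission was recorded immediately and after 30 minutes.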
Starred values were filed as active, the others as inactive; ? = inconclusive; / = not tested or not shown; & = joins results of further samples; [ ] = remark or other dose.

SMILES	TRPV1 potentiator	ClpP mod	TRPML1 blocker	TRPML1 agonist	PINK1 modulator	Menin MLL FP FL	Sfp inh
Cc1cccc(N(CC(=O)NC2CCCCC2)C(=O)c2c(C)noc2C)c1	-8.3	1.4%	-0.4	-0.9	0.0%	-2.5	8.6%
Cc1cccc(-c2noc(CCCC(=O)NC3CCCC3)n2)c1	-7.8	/	-22.6	0.5	0.8%	0.5	10.3%
O=C(CC(C(=O)O)c1ccc(Cl)cc1)c1ccc(Cl)c(Cl)c1 (stereo not given)	14.0	/	0.2	-0.3	0.0%	1.2	?
COc1ccc(OC(=O)c2nc(SCc3ccc(F)cc3)ncc2Cl)cc1	/	0.9%	2.0	1.0	1.2%	/	/
COC(=O)C1C2C=CC3(CN(c4cccc(Cl)c4)C(=O)C13)O2 (stereo not given)	/	3.0%	2.5	-0.2	1.2%	2.7	20.6%
CCOc1cc(NC(=O)c2ccccc2C)c(OCC)cc1NC(=O)C1=Cc2ccccc2OC1	-11.7	0.0%	1.3	0.4	2.4%	-1.9	17.0%
COc1ccc(-c2cn3nc(N4CCCC(C(=O)Nc5cccc(Cl)c5C)C4)sc3n2)cc1 (stereo not given)	/	-2.3%	27.5	1.4	1.1%	/	/
Oc1ccc(/C=N/Nc2ccc(Cl)nn2)cc1O	15.7	-1.1%	-7.3	1.0	0.5%	-6.7	79.4µM*
Cc1ccc(S(=O)(=O)NC(=O)NCCCCNC(=O)NS(=O)(=O)c2ccc(C)cc2)cc1	-0.1	0.4%	-8.6	-1.2	2.5%	-0.4	7.9%
Cc1ccc(C(CC(=O)Nc2ccc(C)cc2C)N2Cc3ccccc3C2=O)cc1 (stereo not given)	/	33.5%	-10.3	5.2	-3.5%	/	/
COc1cccc(C(=O)C2CCCN(Cc3cccn3-c3ccccn3)C2)c1 (stereo not given)	-0.3	/	11.2	-0.2	8.9%	2.9	?
CCC(C)C(NC(=O)OC(C)(C)C)C(=O)NC(CC(C)C)C(N)=O (stereo not given)	8.8	-2.9%	-13.3	0.0	0.3%	3.8	-7.7%
CCOC(=O)N1CCC(NC(=O)CN(C)S(=O)(=O)c2cc3c(cc2Cl)NC(=O)CO3)CC1	5.2	0.5%	5.7	-0.4	-2.2%[38.3 µM]	2.0	6.7%
O=C(Nc1nc2cc3c(cc2s1)OCO3)C1CCCCC1	-23.4	0.5%	-13.2	0.4	2.8%	/	-2.5%
O=C(NCc1csc(-c2ccccc2)n1)c1cc(F)cc2c1OCOC2	-13.7	/	15.7	0.7	0.4%	-4.2	-6.4%
Cc1cccc([C@H]2[C@@H]3C=CC[C@@H](C)[C@@H]3C(=O)N2Cc2ccccc2)c1	/	0.7%	10.6	0.4	12.2%	-4.0[94.6 µM]	-29.0%
O=C(Nc1ccccc1)N1CCN2C(=O)c3ccccc3C12c1ccccc1 (stereo not given)	-23.8	0.1%	-3.0	0.5	0.0%	3.7	-3.8%
CCc1ccc(C2NC(c3ccc(CC)cc3)C([N+](=O)[O-])C(C)(C)C2[N+](=O)[O-])cc1 (stereo not given)	10.6	-2.2%	-9.3	0.6	13.8%	-1.6	7.5%
C=CCNC(=S)Nc1sc2c(c1C(N)=O)CCCC2	8.2	/	12.4	1.0	0.3%	4.1	50.1µM*
Cc1noc(C)c1S(=O)(=O)N(C)C[C@H]1Oc2c(NC(=O)NC3CCCCC3)cccc2C(=O)N([C@H](C)CO)C[C@@H]1C	/	-0.2%	13.5	-1.0	-0.9%	/	/
COc1ccc(CCN2C(=O)NC(NC(=O)c3ccccc3OC)(C(F)(F)F)C2=O)cc1OC (stereo not given)	/	-5.3%	33.0	-0.4	1.5%	/	/
Cc1cc2c(ncn2C)c(NS(=O)(=O)c2ccc(F)cc2)c1C	3.6	/	3.0	-0.4	-0.2%	0.9	17.4%
COc1ccc(NC(=O)/C(Cl)=C(/Cl)S(=O)(=O)Cc2ccc(C)cc2)cn1	-6.1	6.4%	3.5	3.0	-1.8%	-0.1	-2.9%
O=C(c1ccccc1)c1ccc(OCC(=O)N2CCOCC2)cc1	-19.3	0.8%	6.9	0.2	2.9%	1.8	17.3%
Cc1ccc(S(=O)(=O)Oc2ccc(/C=C3/C(=N)N4C(=NC3=O)SN=C4S(C)(=O)=O)cc2)cc1	8.4	1.7%	10.9	0.9	0.7%	/	-12.5%
C/C(=N/Nc1ccc(C)cc1)C1(C)N(O)C(C)(C)C(c2ccco2)=[N+]1[O-] (stereo not given)	-6.9	-0.9%	5.1	0.4	0.4%	-0.5	-14.3%
C[C@H]1CN([C@@H](C)CO)C(=O)CCCn2cc(nn2)CO[C@@H]1CN(C)S(=O)(=O)c1ccc(Oc2ccccc2)cc1	/	-0.3%	-3.1	-0.2	-0.5%	/	/
CCC/C=N/Nc1nnc(Cc2ccc(OC)c(OC)c2)c(=O)[nH]1	-1.3	/	14.6	-0.4	0.2%	-0.1	44.7µM*
c1ccc(CSc2ccc(-c3cccs3)nn2)nc1	-23.5	-0.9%	4.0	-1.1	0.8%	-1.2	-4.7%
C/C(=N\N1CCCCC1)c1ccccc1O	10.8	2.1%	-2.9	0.0	4.0%	-0.8	8.7%
COc1ccc(C2CC(C(F)(F)F)n3nc(C(=O)NCCCn4ccnc4)cc3N2)cc1OC (stereo not given)	-8.4	-1.4%	3.8	-0.1	1.4%	-1.4	5.1%
Cc1ccc(S(=O)(=O)N2CCC(C(=O)N[C@@H](C)C(=O)NCc3ccco3)CC2)cc1	7.8	-1.1%	10.5	0.6	19.8%	-8.4	9.0%
COc1cccc(CNC(=O)Cn2ccc3cc(S(=O)(=O)N4CCCC4)ccc32)c1OC	-6.8	-5.9%&1.1%	2.1&-13.1	1.3&2.6	0.3%&3.5%	-1.3	-6.8%
Cc1ccc(S(=O)(=O)Nc2ccccc2C(N)=O)cc1	13.9	-26.1%	-2.0	-0.2	1.2%	0.6	-10.0%
O=C(c1ccc(N2C(=O)C3CC=C(Cl)CC3C2=O)cc1)N1CCOCC1 (stereo not given)	-1.0	-15.9%	-1.1	-0.5	-4.7%	-1.6	26.1%
O=[N+]([O-])c1ccc(N2CCN(Cc3cccc([N+](=O)[O-])c3)CC2)cc1	-7.2	/	27.0	-0.2	1.6%	2.1	3.4%

3 structures out of the list, sorted by SMILES length, smallest number first:
SMILES	TRPV1 potentiator	ClpP mod	TRPML1 blocker	TRPML1 agonist	PINK1 modulator	Menin MLL FP FL	Sfp inh
C/C(=N\N1CCCCC1)c1ccccc1O	10.8	2.1%	-2.9	0.0	4.0%	-0.8	8.7%
COc1ccc(C2CC(C(F)(F)F)n3nc(C(=O)NCCCn4ccnc4)cc3N2)cc1OC (stereo not given)	-8.4	-1.4%	3.8	-0.1	1.4%	-1.4	5.1%
C[C@H]1CN([C@@H](C)CO)C(=O)CCCn2cc(nn2)CO[C@@H]1CN(C)S(=O)(=O)c1ccc(Oc2ccccc2)cc1	/	-0.3%	-3.1	-0.2	-0.5%	/	/

The results go on.
SMILES	TRPV1 potentiator	ClpP mod	TRPML1 blocker	TRPML1 agonist	PINK1 modulator	Menin MLL FP FL	Sfp inh
COc1ccc(NS(=O)(=O)c2ccc(Br)s2)cc1OC	-4.1	3.8%	11.9	4.2	-2.0%[38.3 µM]	5.0	17.1%
Cc1cc(C)c(S(=O)(=O)N2CCN(c3ccc([N+](=O)[O-])c(NCC4CCCO4)c3)CC2)c(C)c1 (stereo not given)	2.0	1.5%	-2.5	0.6	9.6%[38.3 µM]	0.1	12.9%
COc1ccc2cc(-c3cc(C(=O)O)c4ccccc4n3)ccc2c1	/	25.1µM*	-15.9	-0.4	-1.7%	-1.4	8.9%
Cc1cccc(N2CCN(c3nc4ccc(Cl)cc4n4cnnc34)CC2)c1C	8.8	4.4%	-1.9	-0.9	1.9%	0.6	?
O=C(NC1CCCCC1)c1ccc2c(c1)N(Cc1ccccc1Cl)C(=O)c1ccccc1S2	/	-3.1%	57.0	1.2	-0.8%	/	/
COc1ccc(/C=N/n2cnnc2)cc1Oc1nc(Cl)ncc1F	8.6	-0.1%	13.4	0.8	0.7%	3.6	0.2%
Cc1cc(OCC(=O)NCC(C)C)cc(C)c1Br	-15.0	-0.7%	-3.2	1.0	0.7%	0.3	0.0%
CN1CCN(C(=O)C2=C[C@@H](c3csc4ccccc34)C[C@@H](OCc3ccc(CO)cc3)O2)CC1	-8.8	-1.6%	-21.5	-0.2	0.6%	-1.3	-15.0%
O=C1CC(=O)N(c2cccc(F)c2)N1	4.8	/	-11.0	0.4	-1.1%	-5.2	19.9%
COc1cc(C(CCN2CCCC2)c2c(OC)cc(OC)c3ccc(=O)oc23)cc(OC)c1OC (stereo not given)	14.7	-18.5%	10.6&4.9	0.5&-0.4	1.3%	3.9&12.4	23.1%&-11.8%
CC1(C(=O)NS(=O)(=O)c2cccc(F)c2)CCN1C(=O)Cc1ccc(Cl)cc1Cl (stereo not given)	/	0.7%	/	-0.6	-1.1%	/	/
Nc1cc(=O)nc(SCC(=O)NC2CCCCC2)n1-c1ccccc1	-0.1	-0.9%	-3.7	0.0	1.3%	2.9	15.9%
O=C1C=C(c2ccc(F)cc2OCc2ccccc2)C[C@@H](c2ccc(F)cc2)C1	2.7	0.0%	-6.1	1.2	2.0%	/	/
CC(=O)OCCN(CCCn1c(-c2ccncc2)nc2ccccc21)c1nc(CN2CCCCC2)cs1	?	-10.7%	-5.8	-0.2	1.2%	-0.9	2.2%
O=C(Cn1c(=O)c2cccn2c2ccccc21)NCCc1ccc(Cl)cc1	3.3	/	-16.4	-0.5	10.7%	/	5.6%
COC(=O)/C=C/C1=CN(Cc2ccccc2)CCC1=O	/	-1.9%	-13.2	-0.5	0.3%	/	/
CN(C)S(=O)(=O)c1cccc(NC(=O)c2ccc(N3CCOCC3)c([N+](=O)[O-])c2)c1	-19.5	-19.9%	-1.7	-0.4	1.5%	0.9	?
